CSC inhib = cancer stem cell viability inhibitors, primary screen, luminescence. AID 2717, 2010. 1.1% of 300,000 active. inhibition, % at 7.5 µM. cancer stem cell-like cells viability;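 active = mean at 75% or more and at least half the replicates too; tested in HMLE shEcad cells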;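 also: 0% = median of negative and 100% = median of positive control wells; the first replicate is given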
HIV Env fusion = inhibitors of HIV-1 Env-driven cell-cell fusion, primary screen, HeLa-JRFL effector, CEM21 target cells, luciferase. inhibition, % at 12.3 µM. 1.1% of 360,000 active;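 active = mean replicate inhibition score of at least 50 and every replicate individually at or above 50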;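 also: 0% = plate neutral controls and 100% = maraviroc near 300 nM; one replicate is shown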
PABP FP inh = PABP poly(A) RNA binding inhibitors, primary screen, biochemical, fluorescence polarization, uHTS; Polyadenylate-binding protein 1 (Homo sapiens), P11940; inhibition, % at 35 µM; 1% of 290,000 active; AID 2014, 2009;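 active = 50% or more with normal probe brightness, or confirmed in later tests; about a fifth of its hits are not listed in these tables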;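 also: calls also rest on retests at 20 µM and on dose response follow-up; controls were probe without protein and protein plus probe with vehicle; some compounds called inactive have numbers as strong as hits; many hits fall short of the cut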
Rce1 inhib = yeast Rce1p protease inhibitors, primary screen, biochemical, fluorescence, cell-free homogeneous; yeast membranes, quenched prenylated peptide cleavage fluorescence; calls only; 0.27% of 290,000 active; AID 2563, 2010;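 active = fall in fluorescence gain of 50% or more versus controls, with final raw signal at or below 3038400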;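 also: plate controls were neutral control wells for no effect and wells lacking membranes for full effect; tested at 10 µM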
Target sequence (Q03530 whole entry, looked up): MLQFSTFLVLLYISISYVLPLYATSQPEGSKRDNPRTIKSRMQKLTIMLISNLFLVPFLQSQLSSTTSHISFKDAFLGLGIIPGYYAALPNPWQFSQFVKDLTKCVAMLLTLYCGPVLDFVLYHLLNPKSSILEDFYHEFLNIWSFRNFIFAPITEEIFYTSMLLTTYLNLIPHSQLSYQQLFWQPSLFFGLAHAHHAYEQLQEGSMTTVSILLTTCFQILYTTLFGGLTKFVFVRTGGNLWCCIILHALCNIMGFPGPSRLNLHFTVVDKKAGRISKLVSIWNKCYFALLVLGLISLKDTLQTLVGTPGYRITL
eIF4H inh = human eIF4H binding inhibitors, primary screen, translation initiation inhibitor project, biochemical, uHTS, fluorescence polarization; Eukaryotic translation initiation factor 4H (Homo sapiens), Q15056; eIF4H fluorescence polarization binding assay; inhibition, % at 35 µM; 0.94% of 290,000 active;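 active = 50% or more with normal probe brightness, or confirmed in later tests; about a fifth of its hits are not listed in these tables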;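 also: calls also rest on retests at 20 µM and on dose response follow-up; 0% = protein and probe with vehicle and 100% = probe without protein; strong numbers were not always called active; many hits fall short of the cut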
MT1-MMP act inh = blockers of MT1-MMP proenzyme processing, primary screen, HT1080 RFP-PRO-GFP cells, GFP/RFP fluorescence | Matrix metalloproteinase-14 (Homo sapiens), P50281 | GFP/RFP ratio fluorescence, overnight; percent of plate control window, DMSO zero | GFP/RFP ratio change, % at 20 µM | 0.061% of 360,000 active;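 active = GFP/RFP ratio change of at least 30% with cell ATP level not reduced by more than half and red fluorescence within 50% of control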; also: strong numbers were not always called active
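Test system: HT1080 cells expressing an RFP-PRO-GFP fluorescent reporter construct / Compound dosing: single-point 20 µM compound, 1% DMSO / Schedule: cells overnight before dosing, compound overnight, 37 °C, 5% CO2 / Evaluation: GFP/RFP fluorescence ratio / Control set: DMSO and RFP-L50D-GFP cell wells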
UUG fidelity = modulators of yeast start codon fidelity, primary screen, whole organism, S. cerevisiae, single point, plate reader; S. cerevisiae UUG-firefly luciferase reporter, luminescence/redox ratio; activity score, % at 18.7 µM; 0.13% of 350,000 active;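 active = replicate mean at a twofold rise or more, about +100% in these data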;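 also: firefly luciferase made from a UUG start codon reports start codon fidelity; reporter light over untreated wells divided by growth signal over untreated wells; some hits fall short of that in this replicate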
eIF4H inh retest = recorded beside eIF4H inh, whose call it bears; inhibition, %; compound at 20 µM; confirmation average;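 mean of two retest wells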
PABP FP inh retest = further read-out of PABP FP inh, marked with its call; inhibition, %; compound at 20 µM; confirmation repeats;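 mean of two retest wells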
MT1-MMP act inh RFP = also measured in MT1-MMP act inh; calls as there; RFP signal change, %; measured here: RFP expression control read;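 0 = vehicle wells; hits needed this value within 50% of zero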
* marks the source's active call; other numbers are inactive results; i = inactive; . = no result given. Rows are unselected (roughly 2.9% active in at least one column).

SMILES	CSC inhib	HIV Env fusion	PABP FP inh	Rce1 inhib	eIF4H inh	MT1-MMP act inh	MT1-MMP act inh RFP	UUG fidelity	others
O=C(NCCNCCO)C1(C(F)(F)F)C/C(=C\CCO)CCCO1 (stereo unspecified)	.	0	.	i	.	-1	0	0
COc1ccc(OC)c(NC(=O)C2CC(=O)N(Cc3ccco3)C2)c1 (stereo unspecified)	.	5	.	.	.	-2	8	-21
O=C(Cn1c(=S)[nH]c2ccccc21)c1ccccc1	-25	8	10	i	5	-2	-7	-10
COc1ccc(C(=O)NCc2cccnc2)cc1S(=O)(=O)N1CCOCC1	-1	-52	-1	i	-6	0	2	.
CCOc1ccc(C(=O)NCCN2CCOCC2)cc1	.	-13	6	i	4	3	6	-7
Cc1ccc(CNCCCn2cnc(C(=O)Nc3ccc(C)c(C)c3)n2)o1	.	14	.	.	.	1	2	-11
CCCCOc1ccc(-c2nc(-c3cccnc3)no2)cc1	4	.	2	i	-4	2	-15	-11
O=S(=O)(Cc1nnnn1-c1ccccc1)c1ccc(Cl)cc1	-2	-19	9	i	-6	-2	3	-2
CSc1nc(C=Nc2ccccc2Cl)c(O)n1Cc1cccc(Cl)c1	-1	0	4	i	1	0	-1	.
O=C(C1CCOCC1)N1CCCC(N2CCN(c3ccc(F)cc3)CC2)C1 (stereo unspecified)	-7	-2	.	i	.	1	4	11
O=S(=O)(NCC1COc2ccccc2O1)c1ccccc1F (stereo unspecified)	4	.	.	.	.	-2	0	3
Cc1ccc(Cn2c(O)c(N=NC(=S)Nc3ccccc3F)c3cc(S(=O)(=O)N4CCOCC4)ccc32)cc1	.	20	2	.	-3	13	1	.
CN1CCN(C(=O)C2=C[C@@H](c3ccc(Br)cc3)C[C@@H](OCc3ccc(CO)cc3)O2)CC1	4	-14	-1	i	5	0	0	2
CCN(C(=O)COC(=O)c1cc2ccccc2cc1O)C1CCS(=O)(=O)C1 (stereo unspecified)	-11	11	5	i	-13	4	3	-10
Cn1c(N)c(C(=O)COC(=O)COc2cccc(Br)c2)c(=O)n(C)c1=O	-11	-7	.	.	.	1	5	-12
COc1ccc(NC(=O)Cc2ccc(Cl)cc2)cc1NC(=O)c1ccco1	-3	-174	-6	i	11	0	-3	-10
COc1ccc(OCC(=O)O/N=C(\N)Cc2cccs2)cc1	-5	-15	3	i	0	0	1	.
COc1ccc(N2CCN(C(C)=C3C(=O)c4ccccc4C3=O)CC2)cc1	0	-14	8	i	4	1	8	.
COc1ccccc1-c1cc(C(=O)N2CCN(c3ccccc3)CC2)no1	1	4	-2	i	1	1	1	-1
Oc1ccc(-c2csc(Nc3ncccn3)n2)cc1O	.	-74	-7	i	2	-19	-19	.
COc1ccc(Nc2nnc(Cc3ccc(Cl)cc3)c(=O)[nH]2)c(OC)c1	-5	4	-2	i	-12	3	-1	-19
CCOC(=O)c1ccccc1NC(=O)C1COc2ccccc2O1 (stereo unspecified)	2	.	-4	i	10	2	-1	-20
CC(C)CCN(C(=O)CCCSc1nc2ccccc2[nH]1)c1c(N)n(Cc2ccccc2)c(=O)[nH]c1=O	-2	12	.	i	.	-4	-5	-10
CCCCNC(=S)NNC(=O)c1ccc(Br)o1	23	2	-9	i	8	2	4	.
CCOC(=O)C(=CNc1ccccc1C)C(=O)OCC	5	7	-4	i	-8	4	1	-9

No new results follow: entries from further up.
SMILES	CSC inhib	HIV Env fusion	PABP FP inh	Rce1 inhib	eIF4H inh	MT1-MMP act inh	MT1-MMP act inh RFP	UUG fidelity	others
O=C(NCCNCCO)C1(C(F)(F)F)C/C(=C\CCO)CCCO1 (stereo unspecified)	.	0	.	i	.	-1	0	0
COc1ccc(OC)c(NC(=O)C2CC(=O)N(Cc3ccco3)C2)c1 (stereo unspecified)	.	5	.	.	.	-2	8	-21
O=C(Cn1c(=S)[nH]c2ccccc21)c1ccccc1	-25	8	10	i	5	-2	-7	-10
COc1ccc(C(=O)NCc2cccnc2)cc1S(=O)(=O)N1CCOCC1	-1	-52	-1	i	-6	0	2	.
CCOc1ccc(C(=O)NCCN2CCOCC2)cc1	.	-13	6	i	4	3	6	-7

The results go on.
SMILES	CSC inhib	HIV Env fusion	PABP FP inh	Rce1 inhib	eIF4H inh	MT1-MMP act inh	MT1-MMP act inh RFP	UUG fidelity	others
O=C(NCc1ccccc1)NC1(C(=O)N2CCN(c3ccccc3)CC2)CCCCC1	8	-124	10	i	12	-2	-3	-14
COc1ccc(CCNC(=O)CN2C(=O)COc3ccc(S(=O)(=O)N4CCCC4)cc32)cc1OC	-1	-1	-3	i	5	5	1	-5
O=C(CSc1nnc2c(n1)[nH]c1ccccc12)OCc1ccccc1	-2	.	2	i	4	14	1	410*
CC(C)CC(=O)Nc1ccnc(-c2ccncc2)n1	-13	26	-4	i	-9	6	4	-17
COc1ccc(CC(=O)NC(=S)Nc2cccc(C)c2)cc1	-25	-7	.	i	.	4	0	.
COc1ccc(-c2ccccc2[C@H]2[C@@H]3C=CC[C@@H](C)[C@@H]3C(=O)N2Cc2ccccc2)cc1	.	126*	.	.	.	-6	-27	-5
O=C(Nc1ccc(F)cc1)C(c1ccccc1)N1CCN(S(=O)(=O)c2c(F)cccc2F)CC1 (stereo unspecified)	14	-15	-10	i	-6	-3	1	-18
Cc1cc(C(=O)COC(=O)CCCN2C(=O)c3ccccc3C2=O)c(C)n1C	.	-1	-1	i	6	2	7	-2
Cc1ccc(-n2c(SCC(N)=O)nc3c(c2=O)C2(CCCC2)Cc2ccccc2-3)cc1	42	40	0	i	-2	4	-23	2
CCCNC(=O)NS(=O)(=O)c1cnccc1Sc1ccc(Cl)cc1	-3	.	-3	.	-11	-1	-1	-9
CC(Oc1ccccc1)c1nnc(N)s1 (stereo unspecified)	-15	5	-2	i	-10	-3	-4	-18
Cc1c(-n2cc(C(=O)O)c(=O)c3cc(F)c(N4CCCC4)c(F)c32)c(=O)n(-c2ccccc2)n1C	-13	-12	16	i	0	-5	1	-10
CSCC[C@@H](CO)NC(=O)c1ccc2nc(C3CCCCC3)oc2c1	-5	11	-3	i	-6	4	2	-30
O=C1NC(=O)/C(=C\c2ccccc2OCc2ccccc2)S1	.	13	-6	i	54	-2	-5	-15	eIF4H inh retest=-6;PABP FP inh retest=3
CCn1c(=O)c2sccc2n2c(CCCC(=O)NCc3cccnc3)nnc12	-10	-3	6	i	10	4	5	-16
O=C(CN1CCN(C(=O)N2CCOCC2)CC1)Nc1cc(Cl)ccc1Cl	-12	-2	2	i	-2	1	-2	-9
Cc1nc(-c2ccccc2)sc1C(=O)CSc1ccc(F)cc1	-1	.	-6	i	-6	9	6	-7
COCCNc1c2c(nc3ccccc13)CCC2	-7	-5	16	i	-11	-1	-1	-3
Cc1cccc(N=C/C(C(=O)C(F)(F)F)=C(\O)c2ccco2)c1	-7	-59	-2	i	-4	-11	-3	-2
O=C(Cn1c2ccc(F)cc2c2nc3n(c(=O)c21)CCS3)NCC1CCCO1 (stereo unspecified)	0	-37	-2	i	11	2	0	-6
Fc1ccc(-c2cnc(-c3cccs3)o2)cc1	-10	i	2	i	-8	-5	-5	-17
Fc1ccc(-c2n[nH]c(=S)n2Cc2ccccc2)cc1	-8	.	2	i	-10	-1	-1	-27
Cc1ccc(C)c(NC(=S)NC2CC3CCCC(C2)N3CC(C)C)c1 (stereo unspecified)	-10	-73	-9	i	9	-1	3	-10
CC(C)n1c(-c2ccc(N(C)C)cc2)nc2ccccc21	6	.	-2	.	-9	-6	-12	-37
CC(C)CCNC(=O)CCCn1c(=O)[nH]c2ccc(Br)cc2c1=O	0	30	-3	i	-3	4	4	-13
Next part
SMILES	CSC inhib	HIV Env fusion	PABP FP inh	Rce1 inhib	eIF4H inh	MT1-MMP act inh	MT1-MMP act inh RFP	UUG fidelity	others
Fc1ccc(Oc2nc(-c3ccccn3)nc3ccccc23)cc1	-7	25	16	i	4	-6	-12	25
O=C(O/N=C\c1ccc(N2CCOCC2)c([N+](=O)[O-])c1)c1ccccc1Cl	-5	.	7	i	-9	1	2	.
c1ccc(CSc2nnc(-c3ccco3)o2)cc1	9	-16	2	i	-3	1	-3	-9
CCOc1cc2c(cc1C(C)(C)C)NC(=O)CS2	-11	.	-1	i	-4	-1	-7	-8
O=C(CCC(=O)c1cccs1)NNC(=O)c1cccc(Cl)c1	2	-20	.	i	.	3	4	-26
CN(C)S(=O)(=O)c1cccc(C(=O)NCCOC(=O)c2cc(F)c(F)cc2Cl)c1	9	6	2	i	-17	1	-3	4
CCS(=O)(=O)N1CCC(C(=O)NCCCN2CCC(Cc3ccccc3)CC2)CC1	4	.	-2	i	-2	-1	-1	-7
COc1ccc(CN2C(=O)c3ccccc3C2C(=O)NCCc2ccccc2)c(OC)c1 (stereo unspecified)	-11	2	4	i	-11	.	.	-2
Cc1ccc(NC(=O)C(OC(=O)c2cc(C)oc2C)c2ccccc2)cc1 (stereo unspecified)	-1	-9	-3	i	-4	-4	-4	13
Cc1ccc(S(=O)(=O)N2CCOCC2)s1	-18	-40	-8	i	2	2	6	2
CCN(CC)S(=O)(=O)c1cccc(NC(=O)COC(=O)c2cc(C)oc2C)c1	-1	11	0	.	-1	-5	-3	-13
CCS(=O)(=O)C1=NN2C(=N)/C(=C\c3ccc(OC(=O)c4ccco4)cc3)C(=O)N=C2S1	-4	1	26	i	13	-4	3	-11
O=C(Cn1c(NCCO)nc2ccccc21)c1ccco1	-9	.	1	i	-6	-4	-4	-17
Cc1ccccc1NC(=O)N1CCC(C(=O)c2ccc(F)cc2)CC1	-8	12	-4	i	13	2	-1	.
C/C(=N/NC(=O)CNC(=O)Cc1ccc(Cl)cc1)c1ccco1	11	10	-11	i	1	1	4	-20
Cc1ccc(S(=O)(=O)N2CCN(Cc3nc4sc(C)c(C)c4c(=O)[nH]3)CC2)cc1	.	.	-4	i	-10	5	-3	-16
COC(=O)C1=C(C)N(C2CCCC2)C(=O)C1(NC(C)=O)C(F)(F)F (stereo unspecified)	-7	.	26	i	-6	6	1	-24
O=C1CCCC2=C1C(c1ccccc1O)C1=C(CCCC1=O)O2	-18	.	1	i	4	-2	-2	-20
COc1ccc(-c2cc(C(=O)NC3CCCC3)c3ccccc3n2)cc1	-4	-6	3	i	-1	-1	-10	-25
COc1ccc(OCc2nnnn2-c2ccccc2)cc1	-7	-44	-6	i	-7	1	-1	.
CC(C(=O)O)n1ncc2ccccc2c1=O (stereo unspecified)	-17	-14	-6	i	-16	-3	-2	19
Cc1ccc(NC(=O)C2CC(=O)Nc3nc4ccccc4n32)c(C)c1 (stereo unspecified)	0	11	10	i	2	0	-3	-15
CCn1ncc([C@@H]2C[C@H]3CN(Cc4cccc(Cl)c4)C(=O)[C@]34CCCN24)c1C	-2	11	-6	i	20	-10	1	.
Cc1ccccc1NC(=O)C(=O)NCCc1c[nH]c2ccccc12	23	28	8	i	-3	1	2	-11
CCOC(=O)c1c(C)oc2c1c(CN1CCN(C(=O)OCC)CC1)c(O)c1ccccc12	37	.	4	i	12	0	1	.
O=C(c1ccc(F)cc1)c1ccc(CN2C(=O)c3ccccc3C2=O)o1	.	6	-9	i	-4	2	5	.

2 entries picked at random from those above:
SMILES	CSC inhib	HIV Env fusion	PABP FP inh	Rce1 inhib	eIF4H inh	MT1-MMP act inh	MT1-MMP act inh RFP	UUG fidelity	others
Cc1ccc(NC(=O)C(OC(=O)c2cc(C)oc2C)c2ccccc2)cc1 (stereo unspecified)	-1	-9	-3	i	-4	-4	-4	13
CN(C)S(=O)(=O)c1cccc(C(=O)NCCOC(=O)c2cc(F)c(F)cc2Cl)c1	9	6	2	i	-17	1	-3	4
